PV pol inh = poliovirus RNA polymerase inhibition. P03300. poliovirus polymerase elongation, fluorescence polarization; hits give low values. % elongation, % (compound at 16.7 µg/mL). 150,000 compounds, 0.66% hits. AID 588519; in the data active = % elongation below about 90%; note: some results filed as inactive read as strong as hits
Target sequence (P03300 1749-2209 limits assumed): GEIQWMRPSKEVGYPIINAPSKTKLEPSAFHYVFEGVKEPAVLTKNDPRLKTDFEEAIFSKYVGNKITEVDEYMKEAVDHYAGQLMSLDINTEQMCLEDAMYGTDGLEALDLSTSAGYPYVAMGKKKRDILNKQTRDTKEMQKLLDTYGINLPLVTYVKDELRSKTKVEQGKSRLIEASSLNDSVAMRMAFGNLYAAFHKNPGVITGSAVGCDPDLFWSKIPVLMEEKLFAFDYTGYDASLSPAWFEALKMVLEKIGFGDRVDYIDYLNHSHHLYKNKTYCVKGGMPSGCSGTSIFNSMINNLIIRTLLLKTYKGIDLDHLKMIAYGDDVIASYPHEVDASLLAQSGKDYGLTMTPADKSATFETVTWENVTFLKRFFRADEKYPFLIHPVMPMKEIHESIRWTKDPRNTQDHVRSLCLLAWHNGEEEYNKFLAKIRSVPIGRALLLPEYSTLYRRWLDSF
PV pol inh intensity = recorded beside PV pol inh, whose call it bears; % elongation; measured here: total intensity read-out; formula for this scale not given here;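 total fluorescence in place of polarization; lower means less elongation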
Active calls of the source: *. Only part of the results is shown; the hit share may differ from the screen's.

SMILES	PV pol inh	PV pol inh intensity
O=S(=O)(c1ccc(Cl)cc1)c1nnn2c1nc(NCc1ccccc1)c1sccc12	110	111
COc1cccc(Cn2c(=O)cc(C)c3c(C)nn(C)c32)c1	114	113
COc1ccc(F)cc1S(=O)(=O)NCC(c1ccco1)S(=O)(=O)c1cccs1 (centres undefined)	108	112
Cc1cc([N+](=O)[O-])ccc1NC(=O)CSc1nccn1C	106	104
CCOc1cc2[nH]c(=O)n(CCC(=O)N3CCN(c4ccccc4)CC3)c(=O)c2cc1OCC	109	111
COCCCNC(=O)N1[C@H](c2cccs2)[C@@H](C)C(=O)[C@@H](C)[C@@H]1c1cccs1	107	110
COc1ccc(-c2noc(-c3ccc(NCc4ccco4)c([N+](=O)[O-])c3)n2)cc1	109	106
COc1ccc(-c2nc(SCC(=O)Nc3c(C)cc(C)cc3C)n[nH]2)cc1	115	117
CC(=O)Nc1nc2n(n1)C(c1ccc(F)cc1)C=C(c1ccc(Cl)cc1)N2 (centres undefined)	104	132
Cc1ccc(-c2c3c(=O)n(C)c(=O)n(C)c3c3cnc4ccccc4n23)cc1	102	106
O=C(C1CCCCC1)N(Cc1cccnc1)c1nc2c(F)cc(F)cc2s1	114	114
O=C(Nc1ccc(Cl)cc1Cl)c1cc(S(=O)(=O)N2CCc3ccccc32)ccc1F	106	107
Cc1ccccc1OCC(=O)Nc1nnc(S(=O)(=O)N2CCCC2)s1	108	107
CCc1ccccc1NC(=O)CSc1nc2c(oc3ccccc32)c(=O)n1-c1ccccc1	102	109
CC1Cc2cc(S(=O)(=O)CCC(=O)Nc3ccc(OC(F)(F)F)cc3)ccc2N1C(=O)C1CC1 (centres undefined)	113	108
Cc1cccc(C(=O)OCc2cc(=O)n3ccsc3n2)c1	108	112
Cc1ccc(N(CC(=O)N2CCN(c3ccc(Cl)cc3)CC2)S(=O)(=O)c2c(C)nn(C)c2C)cc1	105	104
CCN(CC)C(=O)c1sc2c(c1C)c(=O)n(-c1ccc(Cl)c(Cl)c1)c(=O)n2Cc1cc(=O)n2c(C)cccc2n1	112	109
COc1ccccc1C(=O)Nc1c(C(=O)NC(C)(C)C)oc2ccccc12	104	104
COc1cc(OC)c(NC(=O)C(C)n2nc(-c3ccc(C)cc3)c3c(c2=O)CCCC3)cc1Cl (centres undefined)	110	105
CCOc1ccc(-c2cc(NC(=O)Nc3cccc(C(C)=O)c3)c(C(=O)OC)s2)cc1	109	110
COCCn1c(C)cc(O)c(C(c2ccccc2OC)N2CCCCC2)c1=O (centres undefined)	110	114
Cc1ccc(CCNC(=O)c2ccc3c(c2)nc2n3CCC(C)C2)cc1 (centres undefined)	108	111
COC(=O)c1nc2n(n1)C(c1cc(OC)ccc1OC)C(C(=O)Nc1ccc(C)cc1C)=C(C)N2 (centres undefined)	103	104
CC(=O)Nc1ccc(C(=O)CSc2nnc(-c3ccccc3)n2-c2ccccc2)cc1	108	108
COc1ccccc1-c1nn(CCC(=O)Nc2ccc(C)cc2)c2nc(C)cc(C)c12	109	107
O=C(Nc1cccc(Cl)c1)N1CCSc2ccccc21	113	102
CCOc1ccccc1NC(=O)Cn1c(=O)n(Cc2ccccc2)c(=O)c2c1c1cc(C)ccc1n2C	103	106
Cc1ccc(NC(=O)CCNS(=O)(=O)c2cccc3nsnc23)cc1	105	106
COc1ccccc1NC(=O)CSc1ncc2c(n1)-c1cc(Cl)ccc1N(C)S2(=O)=O	108	110
CCOCCCNc1nc2ccccc2n2c(CC)nnc12	105	104
Cc1cccc(NC(=O)CSc2nc(=O)n(Cc3cccnc3)c3c2CCC3)c1C	104	105
COc1ccc(NS(=O)(=O)c2ccc3c(c2)NC(=O)CCS3)c(OC)c1	110	118
Cc1cccc(C)c1NC(=O)Cn1c(=O)n(Cc2ccc3c(c2)OCO3)c(=O)c2oc3ccccc3c21	111	114
Cc1ccc2c(CN3CCN(Cc4ccccc4Cl)CC3)cc(=O)oc2c1	107	107
Cc1ccc(NC(=O)Nc2nnc(N(CC(C)C)CC(C)C)s2)cc1Cl	105	101
O=C(CSc1cn(CC(=O)N2CCCCC2)c2ccccc12)Nc1ccccc1	101	107
COc1ccc(CNC(=O)CN2C(=O)c3cccnc3Oc3ccc(C)cc32)cc1	100	96
Cc1cc(NC(=O)c2cccc(Cl)c2)ccc1-c1cc2ccccc2oc1=O	107	116
Cc1ccc(NC(=O)C2CCN(c3nnc(C)c4c(C)n(-c5ccccc5)nc34)CC2)c(Cl)c1	110	94
CCOc1ccccc1-n1nnc(-c2nc(-c3ccccc3)no2)c1N	115	124
COc1ccc(N2CCN(C(=O)c3ccc4c(c3)CCN4S(C)(=O)=O)CC2)cc1	107	106
COc1ccc(C(=O)Oc2cc(-c3ccc(OC)c(OC)c3)cc(=O)c3c(C)oc(C)c23)cc1	120	132
CCc1nonc1NC(=O)c1oc2cc(C)c(Cl)cc2c1C	111	113
Cc1cccc(NS(=O)(=O)c2ccc(Cl)c(C(=O)Nc3ccccc3C)c2)c1	107	111
Cc1cccc(N(C)S(=O)(=O)c2nnc(NC(=O)c3cccs3)s2)c1	110	109
COc1cc(NS(=O)(=O)c2c(C)nc3sc(C)c(C)n3c2=O)cc(OC)c1	103	99
CCCn1c2ccccc2c2cnn(CC(=O)NCCc3ccc(S(N)(=O)=O)cc3)c(=O)c21	109	108
Oc1cccc(Nc2nc(-c3ccccc3)nc3ccccc23)c1	109	110
COc1cccc(N2CC(NC(=O)CCCc3ccccc3)CC2=O)c1 (centres undefined)	103	107
Cc1cccc(-c2noc(CN(C(=O)COc3ccc(Br)cc3C)C(C)C)n2)c1	102	105
COc1ccc(S(=O)(=O)N2CCN(c3ccc(F)cc3)CC2)cc1-c1noc(C)n1	103	106
Cc1c(/C=C(\C#N)C(=O)Nc2cccc(Cl)c2)c2ccccc2n1Cc1ccccc1Cl	112	119
COc1cc(Nc2nc3c(S(=O)(=O)c4ccccc4)nnn3c3ccc(Cl)cc23)cc(OC)c1	102	104
Cc1ccc(Cl)cc1N1CCN(C(=O)c2ccc3c(c2)N(Cc2ccc(F)cc2)CCS3)CC1	104	109
COc1ccccc1Oc1nc2c(c(=O)n(C)c(=O)n2C)n1Cc1cccc(Br)c1	113	117
Cc1cc(C)cc(OCc2ccc(C(=O)Nc3ccccc3F)o2)c1	103	106
CCCOc1cccc(C2c3c(oc4ccccc4c3=O)C(=O)N2c2nncs2)c1 (centres undefined)	106	105
CC(=O)N1CCCc2cc(S(=O)(=O)N3CCC(C(=O)NCc4ccc(C)cc4)CC3)ccc21	111	114
CCNC(=O)c1ccc2c(c1)nc1n2CCCCC1	111	118

Next results.
SMILES	PV pol inh	PV pol inh intensity
O=C(NCCc1csc(-c2cccnc2)n1)c1cccc(Cl)c1	109	112
CC(=O)N1CCCC1c1nc2ccccc2n1Cc1cc(C)ccc1C (centres undefined)	104	101
Cc1ccc(NC(=O)CCCn2c(=O)c3cccn3c3cccnc32)c(C)c1	103	108
CCOc1ccc(Nc2nc3c(S(=O)(=O)c4ccc(CC)cc4)nnn3c3ccc(Cl)cc23)cc1	104	109
O=C(CS(=O)(=O)c1cccc2nsnc12)Nc1ccccc1	111	109
CC(C)(C)C(=O)Cn1c(=O)n(CCCCCC(=O)NCc2ccc3c(c2)OCO3)c(=O)c2sccc21	93	96
Cc1ccc(S(=O)(=O)c2cn(Cc3ccccc3)c3cc(N4CCCCC4)c(F)cc3c2=O)cc1	106	110
COc1cccc(NC(=O)C2CCN(S(=O)(=O)c3c(C)noc3/C=C/c3cccs3)CC2)c1	104	108
O=C(NCCc1ccc(Cl)cc1)c1nc(-c2cccc(F)c2)n2c1CCCCC2	102	104
COc1cc(C(=O)Nc2nc3c(s2)Cc2c(Br)ccc(OC)c2-3)cc(OC)c1OC	99	103
CC(C)c1nn2c(=O)cc(COC(=O)CNC(=O)c3ccccc3Cl)nc2s1	106	107
COc1ccccc1CNC(=O)Cn1nc(C)n2cccc2c1=O	106	112
CCOc1ccc(CN(C(=O)c2nc(SC)ncc2Cl)C2CCS(=O)(=O)C2)cc1 (centres undefined)	119	115
CCOc1ccc(CNC(=O)C2Cc3ccccc3N2C(=O)CC)cc1 (centres undefined)	110	116
O=C(NCc1cccn1Cc1ccccc1)Nc1ccc(Br)cc1F	103	112
Cc1ccc(Cl)cc1-n1c(SCC(=O)NCc2ccccc2)nc2n[nH]c(C)c2c1=N	103	100
O=C1c2oc3ccccc3c(=O)c2C(c2ccc(Br)cc2)N1c1ccccn1 (centres undefined)	102	105
CCc1ccc(C2CC(=O)c3c([nH]c(C(=O)OC4CCCC4)c3C)C2)cc1 (centres undefined)	103	106
Cc1ccc(S(=O)(=O)c2nnn3c2nc(NC(C)C)c2cc(Cl)ccc23)cc1C	102	110
O=C(/C=C/c1ccccc1)N1CCN(Cc2cc(=O)n3nc(-c4ccccc4Cl)sc3n2)CC1	109	108
CCOc1ccccc1NC(=O)C(Cc1ccccc1)NS(=O)(=O)c1ccc(Br)s1 (centres undefined)	101	96
Cc1ccc(-c2cc(C(=O)N3CCN(S(=O)(=O)c4ccc(Br)s4)CC3)[nH]n2)c(C)c1	112	108
CS(=O)(=O)N1CCc2cc(C(=O)Nc3cccc(F)c3)ccc21	100	105
CC(C)OCCCNC(=O)CCCN1C(=O)CCn2nc(-c3cccn3C)cc21	100	99
Cc1cc(C)cc(OCC(=O)Nc2ccc(-c3nc4ccccc4s3)cc2)c1	105	104
COc1ccccc1CNC(=O)CS(=O)(=O)Cc1nc(-c2ccccc2C)oc1C	98	92
Cc1ccccc1NC(=O)c1cnc2sc(N3CCCC3)nn2c1=O	111	110
O=S(=O)(NCc1nc2cccnc2n1Cc1ccccc1)c1ccc2c(c1)CCCC2	114	114
Cc1ccc(NC(=O)CSc2nnc3[nH]c(=O)cc(-c4ccccc4)n23)cc1Cl	105	107
CCN(C(=O)c1nn(-c2ccc(OC)c(Cl)c2)c(=O)c2c1c1ccccc1n2C)c1cc(OC)ccc1OC	108	110
Cc1ccc(-n2ncc3c(NCCCN(C)C)ncnc32)cc1Cl	102	105
Cc1cccc(C)c1NC(=O)Cn1c(=O)n(CCC(=O)NCc2ccccc2Cl)c(=O)c2sccc21	107	113
CCc1nc2nc(C)cc(Nc3ccc(Br)cc3F)n2n1	107	99
Cc1ccccc1OCCn1c(CCNC(=O)C(C)(C)C)nc2ccccc21	108	112
CCCCCOc1ccccc1Cn1c(=O)oc2ccc(C)cc21	104	104
CC(=O)c1ccc(Nc2nc3ccccc3nc2-n2nc(C)cc2C)cc1	102	105
Cc1ccc(NC(=O)CN2C(=O)CC(C)Sc3ccccc32)c(C)c1 (centres undefined)	100	105
CCc1ccc(S(=O)(=O)c2nnn3c2nc(Nc2ccc(C)c(Cl)c2)c2sccc23)cc1	110	113
CCN(CC)c1ccc(NC(=O)Cn2c(C)c3cnn(-c4ccccc4)c(=O)c3c2C)c(C)c1	105	110
Cc1cccn2c(=O)c3cc(C(=O)N(Cc4ccccc4)C(C)C)sc3nc12	103	109
CCOc1ccc(NC(=O)C2CCCN(S(=O)(=O)c3ccc4[nH]c(=O)ccc4c3)C2)cc1 (centres undefined)	120	124
COc1cc(OC)c2c(C)c(CC(=O)NCc3ccccc3OC)c(=O)oc2c1	109	113
Cc1cc(F)ccc1NC(=O)C1CCN(C(=O)c2cnn(-c3ccccc3)c2-n2cccc2)CC1	109	111
COc1cccc(NC(=O)CCN2CCN(c3ccccc3)CC2)c1	104	107
Brc1ccc2nc(SCCOc3ccccc3)[nH]c2c1	98	98
COCCCNC(=O)c1cc(-c2cccnc2)nc2ccc(S(=O)(=O)N3CCC(C)CC3)cc12	47*	50*
Cc1c(C(=O)NCc2ccc(Cl)cc2)sc2nc3n(c(=O)c12)CCC3	105	107

Molecules above containing two or more sulfur atoms (15):
SMILES	PV pol inh	PV pol inh intensity
O=S(=O)(c1ccc(Cl)cc1)c1nnn2c1nc(NCc1ccccc1)c1sccc12	110	111
COc1ccc(F)cc1S(=O)(=O)NCC(c1ccco1)S(=O)(=O)c1cccs1 (centres undefined)	108	112
COCCCNC(=O)N1[C@H](c2cccs2)[C@@H](C)C(=O)[C@@H](C)[C@@H]1c1cccs1	107	110
Cc1ccccc1OCC(=O)Nc1nnc(S(=O)(=O)N2CCCC2)s1	108	107
Cc1ccc(NC(=O)CCNS(=O)(=O)c2cccc3nsnc23)cc1	105	106
COc1ccccc1NC(=O)CSc1ncc2c(n1)-c1cc(Cl)ccc1N(C)S2(=O)=O	108	110
COc1ccc(NS(=O)(=O)c2ccc3c(c2)NC(=O)CCS3)c(OC)c1	110	118
Cc1cccc(N(C)S(=O)(=O)c2nnc(NC(=O)c3cccs3)s2)c1	110	109
COc1cc(NS(=O)(=O)c2c(C)nc3sc(C)c(C)n3c2=O)cc(OC)c1	103	99
O=C(CS(=O)(=O)c1cccc2nsnc12)Nc1ccccc1	111	109
COc1cccc(NC(=O)C2CCN(S(=O)(=O)c3c(C)noc3/C=C/c3cccs3)CC2)c1	104	108
CCOc1ccc(CN(C(=O)c2nc(SC)ncc2Cl)C2CCS(=O)(=O)C2)cc1 (centres undefined)	119	115
CCOc1ccccc1NC(=O)C(Cc1ccccc1)NS(=O)(=O)c1ccc(Br)s1 (centres undefined)	101	96
Cc1ccc(-c2cc(C(=O)N3CCN(S(=O)(=O)c4ccc(Br)s4)CC3)[nH]n2)c(C)c1	112	108
CCc1ccc(S(=O)(=O)c2nnn3c2nc(Nc2ccc(C)c(Cl)c2)c2sccc23)cc1	110	113
